# Mtb growth – M. tuberculosis H37Rv growth inhibitors, H37Rv strain (AID 1626) | one-dose inhibition, % at 10 µM; IC50 in µM for titrated hits | M. tuberculosis H37Rv growth inhibition; higher % means a stronger effect | actives 0.95% (n = 220,000);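 active means confirmed in a dose series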;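 further: bacteria incubated seven days before Alamar blue readout; 0% = bacteria only wells and 100% = bacteria with antibiotic wells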
# YopH PTP inh – blocks Yersinia enterocolitica YopH tyrosine phosphatase. fluorescence Ex485/Em525. AID 898. inhibition, %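 (about 10 µM by stock and volumes)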. actives 0.16% (n = 140,000);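 active means inhibition of 50% or more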;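 further: controls were vehicle for no effect and minimum signal wells for full effect; inactives centre near -20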
# Arbovirus inh – blocks arbovirus infection | actives 0.37% (n = 200,000) | inhibition, % at 10 µM | AID 1251 | arbovirus infection cell-based antiviral screen;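 active means inhibition from about 30%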;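 further: bluetongue infection of BSR cells; cell survival read as ATP light after 72 h; 0% = infected wells without compound and 100% = uninfected wells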
# RecA intein inh – blocks M. tuberculosis RecA intein splicing; AID 2221; actives 0.75% (n = 290,000); cell-free RecA intein splicing, fluorescence; inhibition, %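 (about 9 µM by stock and volumes)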; in the data active means inhibition above about 30%;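 further: 0% = vehicle wells and 100% = reference inhibitor control wells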
# Target sequence (P9WHJ3 whole entry, looked up): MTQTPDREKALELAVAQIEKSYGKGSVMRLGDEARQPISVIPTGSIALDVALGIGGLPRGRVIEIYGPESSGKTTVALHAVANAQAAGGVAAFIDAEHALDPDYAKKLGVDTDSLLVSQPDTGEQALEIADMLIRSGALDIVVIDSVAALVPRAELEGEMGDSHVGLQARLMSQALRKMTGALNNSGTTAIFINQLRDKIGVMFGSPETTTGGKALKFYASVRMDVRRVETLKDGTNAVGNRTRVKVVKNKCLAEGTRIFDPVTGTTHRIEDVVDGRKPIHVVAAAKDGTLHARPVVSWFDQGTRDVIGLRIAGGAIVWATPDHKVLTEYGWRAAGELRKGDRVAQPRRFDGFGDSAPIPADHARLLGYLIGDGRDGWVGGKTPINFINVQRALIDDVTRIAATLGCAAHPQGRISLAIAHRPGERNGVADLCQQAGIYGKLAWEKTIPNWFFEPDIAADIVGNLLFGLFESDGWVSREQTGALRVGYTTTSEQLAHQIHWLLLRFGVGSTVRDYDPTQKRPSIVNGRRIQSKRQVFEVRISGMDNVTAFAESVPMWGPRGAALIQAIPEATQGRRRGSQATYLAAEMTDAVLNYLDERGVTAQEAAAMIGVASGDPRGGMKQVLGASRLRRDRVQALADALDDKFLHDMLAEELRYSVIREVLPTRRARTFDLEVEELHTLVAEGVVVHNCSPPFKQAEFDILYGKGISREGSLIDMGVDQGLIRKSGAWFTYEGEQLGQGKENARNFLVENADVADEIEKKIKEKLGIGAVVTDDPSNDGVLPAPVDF
# Mtb betalactam – beta-lactam sensitization of Mtb H37Rv. M. tuberculosis H37Rv growth with meropenem, percent inhibition; hits of this screen are not shown here. actives 0.27% (n = 330,000). AID 434955. inhibition, % at 25 µM;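 active means about 74% or more and at least 40 points above the plate without the antibiotic, then above 30% in a dose series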;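 further: growth measured after seven days incubation then overnight dye step; 0% = bacteria only wells and 100% = bacteria with antibiotic; twin plates without the antibiotic show which effects depend on it; some results filed as inactive read as strong as hits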
# Arbovirus inh repeat – second read-out of Arbovirus inh, no call of its own (marks repeat the call); inhibition, %; measured here: 10K subset replicate screen; many hits read low in the repeat;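 first of two repeat runs on a subset; 0% = infected and 100% = uninfected wells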
# * marks the source's active call; other numbers are inactive results; x = no result given.
SMILES,Mtb growth,YopH PTP inh,Arbovirus inh,RecA intein inh,Mtb betalactam,others
COc1ccc(OCCN(C)CC(=O)Nc2c(C)cccc2C)cc1,x,x,x,0.4,-1,
CCc1ccc2oc(C(=O)Nc3nonc3C)c(C)c2c1,x,x,x,0.4,9,
CC(C)Sc1n[nH]c(=O)n1-c1cccc(C(F)(F)F)c1,9%,x,x,-1.8,-4,
CCOC(=O)C[C@H]1c2ccc(C(F)(F)F)cc2S(=O)(=O)N1c1cccc(OC)c1,1%,x,x,-0.3,-5,
O=C(N/N=C/c1ccccc1)C1CCCN1C(=O)c1cc([N+](=O)[O-])cc([N+](=O)[O-])c1 (stereo not given),x,x,x,-7.3,64,
Cc1ccc(NC(=O)c2ccn(C)n2)c(Br)c1,-1%,-31,-3,0.1,3,
COc1ccccc1NC(=O)COc1ccc(Br)cc1CNC1CCCC1,14%,x,-3,2.2,61,
COc1ccc(S(=O)(=O)N2CCCc3ccccc32)cc1[N+](=O)[O-],x,x,x,0.5,2,
CCOc1cccc(C2c3c(oc4cc(C)c(C)cc4c3=O)C(=O)N2CCCN(C)C)c1 (stereo not given),-1%,-43,1,x,x,Arbovirus inh repeat=0
CC(=O)Nc1ccc(-c2nc(C)c(C(C)=O)n2O)cc1,-7%,13,-3,-1.3,-4,
COC(=O)CCSc1cc(NCCOC(C)=O)c([N+](=O)[O-])c2nonc12,16µM*,0,0,54*,51,
CCC(CC)NC(=O)CO/N=C/c1ccccc1OC(F)F,-4%,-23,3,0.7,7,
COc1ccc2cc(C)c3nnc(SCC(=O)Nc4cc(OC)c(OC)cc4C(=O)O)n3c2c1,5%,x,-4,-2.9,-5,
COc1cccc(CN2CC(C(=O)NCc3cccc(N4CCCC4)c3)CCC2=O)c1 (stereo not given),x,x,x,1.7,39,
CC(C)=CCC(C)(C)C1OCCN1C(=O)c1ccccc1 (stereo not given),-9%,-15,7,0.8,6,
C=CCN1C(=O)C(Cc2ccccc2)S/C1=N/N=C/c1cccs1 (stereo not given),-6%,-22,2,10,10,
O=C1CCc2cc(S(=O)(=O)NC(C(=O)N3CCN(c4ccccn4)CC3)c3ccccc3)ccc2N1 (stereo not given),-8%,x,-1,-3.8,-3,
CC(C)NC1=C(Cl)C(=O)c2ccccc2C1=O,6%,-6,-41,16,-3,
CCCCN(CCCC)S(=O)(=O)c1c(C)[nH]c(=O)[nH]c1=O,-6%,x,18,1.2,-6,
NC(=O)CSc1ncc(-c2ccccc2)[nH]1,-6%,-41,4,-4.0,-8,Arbovirus inh repeat=6
CCN(CC)c1nc2c(C)cccn2c(=O)c1C=C1C(=O)NC(=O)NC1=O,-1%,x,8,-2.1,5,
O=C(c1ccc(Cl)cc1)N1CCN(c2ccc([N+](=O)[O-])c(NCc3cccnc3)c2)CC1,0%,-36,x,-1.1,-5,
CCOC(=O)c1c(CN2CCOCC2)n(-c2ccccc2)c2cc(Br)c(O)c(CN(C)C)c12,19%,-2,4,0.9,0,
CN(C)NC(=S)Nc1ccc2nc(-c3ccccn3)c(-c3ccccn3)nc2c1,-9%,-3,-8,-3.0,-10,
CCCNC(=O)c1[nH]c(C)c(C(C)=O)c1C,-14%,-5,-3,-3.5,-4,
Cc1nc(SCc2ccc(O)c([N+](=O)[O-])c2)n[nH]1,-1%,-1,-7,-5.3,-6,
NC(=S)N/N=C/c1ccc(/C=N/NC(N)=S)cc1,-16%,x,x,-3.6,x,
COc1ccccc1NC(=O)C(=O)c1cn(CC(=O)N2CCOCC2)c2ccccc12,x,x,x,-10,3,
CC(C)N1CN(c2ccccc2)C(=S)N(c2ccccc2)C1,-5%,x,x,-1.0,3,
Cc1ccc(NC(=O)CSc2nc3ccccc3nc2N2CCOCC2)cc1,x,x,x,4.3,-2,
Cc1ccc(-c2n[nH]c3c2CCC3)cc1,41%,-2,5,4.8,95,
CCC(=O)N1CCc2cc(S(=O)(=O)N3CCCC3)ccc21,x,x,x,-4.7,-6,
CCCNC(=O)C1=C(C)C(=O)OC12CCC(C)CC2 (stereo not given),0%,-6,4,0.0,5,
CC1CCCC(C)N1CCCNC(=O)CCn1c(=O)c2cccn2c2cccnc21 (stereo not given),x,x,x,2.9,-7,
COc1ccc(CCNC(=O)c2ccc3nc(N4CCCCC4)sc3c2)cc1OC,x,x,x,-0.8,11,
O=C(Nc1nccs1)c1ccc([N+](=O)[O-])cc1Cl,x,x,x,0.7,3,
O=C1c2ccc([N+](=O)[O-])cc2C(=O)N1CNc1ccccn1,10%,x,2,-6.4,2,
CCOc1ccc(N(C)S(=O)(=O)c2cc(-c3cc(C)no3)ccc2C)cc1,x,x,x,9.4,71,
CN(C)S(=O)(=O)c1cccc(NC(=O)c2cc3c(cc2Cl)N2CCCCCC2=NS3(=O)=O)c1,3%,x,1,-11,-3,
COc1ccc(Cc2nnc(SCC(=O)N3CCc4ccccc4C3)o2)cc1,9%,9,9,4.2,12,
O=C(COc1ccc(F)c(Cl)c1)c1ccc[nH]1,x,-19,0,3.4,-3,
CC(C)C1N=C2c3ccccc3N=C(SCC(=O)c3ccc(O)c(O)c3)N2C1=O (stereo not given),-2%,-72,-30,-7.3,2,
Cn1c(=O)c2cc(S(=O)(=O)NCCC(=O)Nc3ccc(F)cc3F)ccc2n(C)c1=O,0%,x,3,-1.4,-3,
c1cncc(CNCc2ccco2)c1,x,x,x,-1.0,-4,
O=C(Nc1ccc(NC(=O)C2CCCCC2)nc1)c1cccs1,0%,x,-17,-2.9,6,
COc1ccc(C2CCCN2C(=S)Nc2cccc(Cl)c2)cc1OC (stereo not given),32%,x,3,5.3,-1,
CCOC(=O)CN(C(=O)CSc1nnc(COc2ccc(OC)cc2)n1CC)c1ccccc1,x,x,x,2.1,-2,
CCOC(=O)c1ccc(N(CC(=O)NCC2CCCO2)C(=O)CCC(=O)Nc2cc(C)on2)cc1 (stereo not given),x,x,x,-2.1,1,

# In the list so far, these have bromine:
SMILES,Mtb growth,YopH PTP inh,Arbovirus inh,RecA intein inh,Mtb betalactam,others
Cc1ccc(NC(=O)c2ccn(C)n2)c(Br)c1,-1%,-31,-3,0.1,3,
COc1ccccc1NC(=O)COc1ccc(Br)cc1CNC1CCCC1,14%,x,-3,2.2,61,
CCOC(=O)c1c(CN2CCOCC2)n(-c2ccccc2)c2cc(Br)c(O)c(CN(C)C)c12,19%,-2,4,0.9,0,

# More entries.
SMILES,Mtb growth,YopH PTP inh,Arbovirus inh,RecA intein inh,Mtb betalactam,others
CSc1ncc(/C=C2/C(=O)NC(=O)N(c3ccc(C)cc3)C2=O)cn1,8%,x,3,2.4,-2,
CC1CC(OC(=O)C(O)c2ccccc2)CC(C)(C)N1C (stereo not given),-4%,x,x,-2.2,0,
O=C(OCC(=O)N1CCN(c2ccccc2)CC1)c1ncc(Cl)c(Cl)c1Cl,x,x,x,3.0,17,
O=C(O)c1ccc(Cl)c(S(=O)(=O)N(Cc2ccccc2)c2ccc(Cl)cc2)c1,x,x,x,11,2,
CCCC(CCC)C(=O)Nc1c[nH]c(=O)[nH]c1=O,-9%,-5,1,1.1,9,
Nc1cc(N)nc(SCc2ccc(Cl)cc2)n1,x,x,x,0.3,5,
O=c1c2ccccc2nc2n1C1(CCCCC1)Cc1ccccc1-2,7%,8,-13,18,-1,
O=C(Nc1cccc(S(=O)(=O)Nc2ccccc2Cl)c1)c1ccc(Cl)nc1,2%,-9,7,0.8,2,
Cc1[nH]nc2nc3c(c(OC(=O)c4ccccc4)c12)c(=O)n(C)c(=O)n3C,x,-44,0,0.1,100,
Cc1cccc(OCCn2nnc3ccccc32)c1C,x,x,x,2.1,11,
O=C(CN1CCN(c2ccccc2F)CC1)c1c[nH]c2ccc(F)cc12,-1%,5,-16,-1.2,2,
COc1ccc([C@@H]2[C@@H]3C(=O)N(C(C)(C)C)C(=O)[C@@H]3[C@]3(Cc4ccccc4)C(=O)N(c4ccc(C(F)(F)F)cc4)C(=O)N23)cc1,x,x,x,0.0,92,
CCCCN1C(=O)c2ccc(C(=O)NCCN3C(=O)S/C(=C\c4cccnc4)C3=O)cc2C1=O,-5%,-12,7,1.7,-2,
[O-]C1=N/[N+](=C/c2ccccc2Cl)CC1,-2%,-3,1,70*,-2,
O=C(CSc1nnc(-c2ccco2)o1)c1ccc(F)c(F)c1,-4%,-43,-3,1.7,-15,
COC(=O)c1cc(-c2ccc(C)cc2)n[nH]1,-7%,x,-2,-4.3,6,
O=C(O)C1C2CCC(O2)C1C(=O)NCCC1=CCCCC1 (stereo not given),-5%,-12,3,-1.0,-25,
Cc1ccc(S(=O)(=O)N(C)C)cc1NC(=O)CSc1nc2ccccc2c(=O)n1CC1CCCO1 (stereo not given),x,x,x,2.1,-17,
C=C(Br)Cn1cnc2ccccc21,2%,x,2,-3.2,3,
O=C(NCc1ccncc1)c1ccc(N2CCCC2)c([N+](=O)[O-])c1,-4%,x,10,1.2,-4,
Cc1ccsc1C(=O)c1sccc1C,3%,-21,3,2.5,-2,
COc1ccc(C2CC(c3cccs3)=NN2c2nc(-c3ccccc3)cs2)cc1OC (stereo not given),6%,-41,-3,-4.1,14,
CCOC(=O)N/N=C\c1ccc(-c2cccc(C(F)(F)F)c2)o1,11%,x,-7,4.1,0,
CC(=O)NNc1nc(-c2ccccc2)c2cc(Br)ccc2n1,-5%,-23,-4,0.3,-3,
N#Cc1cc2cc3c(cc2nc1SCC(=O)OC1CCCCC1)OCO3,3%,-20,0,-2.7,59,
Cc1ccc(NC(=S)Nc2ccc(F)cc2)cc1C,x,x,x,2.9,18,
Cn1nccc1NC(=O)Nc1ccc(Cl)cc1,2%,x,x,2.7,-3,
O=C(CSc1nnnn1-c1ccccc1)N1CCc2ccccc21,-3%,42,-6,-0.6,3,
CS(=O)(=O)N1N=C(c2ccc3nccnc3c2)CC1c1ccccc1 (stereo not given),-4%,-20,6,-6.6,0,
CN(C(=O)COc1cc(C(F)(F)F)nn1C)c1ccccc1,3%,x,3,-1.5,3,
CC(OC(=O)CCN=C1NS(=O)(=O)c2ccccc21)C(=O)N(C)c1ccccc1 (stereo not given),x,x,x,-0.8,1,
O=C(Nc1ccc(F)cc1)c1cccc(NC(=O)C2C3CC4OC(=O)C2C4C3)c1 (stereo not given),-1%,-28,6,4.0,3,
COc1cccc(OC)c1C(=O)N=c1sc2cc(S(C)(=O)=O)ccc2n1C,4%,x,0,-0.9,0,
CCOC(=O)N1CC=C2C(C#N)=C(N)C(C#N)(C#N)[C@H](c3ccc(OC(C)C)c(OCC)c3)[C@H]2C1,-1%,-4,1,17,0,
COc1ccc(-c2nc(Cn3c(SCc4ccc(F)cc4)nc4ccncc43)c(C)o2)cc1OC,68%,-22,-1,5.6,73,
O=C(COc1ccccc1)N1CCN(S(=O)(=O)Cc2ccccc2)CC1,-3%,-10,6,-2.1,1,
COc1ccc(NC(=O)CSc2nc(N)c3cc4c(nc3n2)CCCC4)cc1,3%,-4,-9,-3.2,2,
Cc1ccc(CN2C(=O)c3ccccc3C2C(=O)NCc2cccnc2)cc1 (stereo not given),8%,-36,-4,1.3,-5,
COc1ccc(C2=NOC(CN3C(=O)c4ccccc4S3(=O)=O)C2)cc1 (stereo not given),-17%,-29,3,1.4,-18,
O=C(O)COc1nsnc1N1CCOCC1,-3%,-31,0,-1.6,-8,
O=C(NCCc1ccccc1Cl)C1CCC(=O)N(C2CCCCCC2)C1 (stereo not given),x,x,x,2.4,-9,
CC1(c2ccncc2)Nc2ccccc2-c2nc3ccccc3n21 (stereo not given),-4%,-13,5,0.0,2,
O=C1CC(C(=O)NC2CCCCC2)C(c2ccccc2)O1 (stereo not given),-3%,-1,4,-3.6,-8,
CCOC(=O)C1CCN(C(=O)c2c(-c3c(F)cccc3Cl)noc2C)CC1,-3%,-13,-4,0.4,11,
Cc1c(CCO)c(=O)[nH]n1S(=O)(=O)c1ccc(F)cc1,x,x,x,1.2,2,

# As a short view, part of the list above.
SMILES,Mtb growth,YopH PTP inh,Arbovirus inh,RecA intein inh,Mtb betalactam,others
CCOC(=O)C1CCN(C(=O)c2c(-c3c(F)cccc3Cl)noc2C)CC1,-3%,-13,-4,0.4,11,
Cc1c(CCO)c(=O)[nH]n1S(=O)(=O)c1ccc(F)cc1,x,x,x,1.2,2,

# Filtered by structure: the compounds so far containing a furan ring, fused or not
SMILES,Mtb growth,YopH PTP inh,Arbovirus inh,RecA intein inh,Mtb betalactam,others
CCc1ccc2oc(C(=O)Nc3nonc3C)c(C)c2c1,x,x,x,0.4,9,
c1cncc(CNCc2ccco2)c1,x,x,x,-1.0,-4,
O=C(CSc1nnc(-c2ccco2)o1)c1ccc(F)c(F)c1,-4%,-43,-3,1.7,-15,
CCOC(=O)N/N=C\c1ccc(-c2cccc(C(F)(F)F)c2)o1,11%,x,-7,4.1,0,

# Some of the compounds tested; the hit share may differ from the screen's.
